KCNQ2 pot – enhances the rat KCNQ2 potassium channel; O88943; CHO-K1 KCNQ2, FluxOR thallium flux fluorescence; active compounds read high; B-score at 10 µM; hit rate 0.54% among 310,000; AID 2239;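 active = fluorescence ratio B-score at least 3 SD of library B-scores, with initial fluorescence B-score within 3 SD, cut at about 5.3 in these data; same plate scores as AID 2156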;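 also: B-score of peak minus minimum over baseline fluorescence ratio after K+ and Tl+ stimulus; positive B-score means potentiation of KCNQ2 with more thallium influx and brighter signal; only the inactives scoring about 0 or higher are listed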
Target sequence (O88943 whole entry, looked up): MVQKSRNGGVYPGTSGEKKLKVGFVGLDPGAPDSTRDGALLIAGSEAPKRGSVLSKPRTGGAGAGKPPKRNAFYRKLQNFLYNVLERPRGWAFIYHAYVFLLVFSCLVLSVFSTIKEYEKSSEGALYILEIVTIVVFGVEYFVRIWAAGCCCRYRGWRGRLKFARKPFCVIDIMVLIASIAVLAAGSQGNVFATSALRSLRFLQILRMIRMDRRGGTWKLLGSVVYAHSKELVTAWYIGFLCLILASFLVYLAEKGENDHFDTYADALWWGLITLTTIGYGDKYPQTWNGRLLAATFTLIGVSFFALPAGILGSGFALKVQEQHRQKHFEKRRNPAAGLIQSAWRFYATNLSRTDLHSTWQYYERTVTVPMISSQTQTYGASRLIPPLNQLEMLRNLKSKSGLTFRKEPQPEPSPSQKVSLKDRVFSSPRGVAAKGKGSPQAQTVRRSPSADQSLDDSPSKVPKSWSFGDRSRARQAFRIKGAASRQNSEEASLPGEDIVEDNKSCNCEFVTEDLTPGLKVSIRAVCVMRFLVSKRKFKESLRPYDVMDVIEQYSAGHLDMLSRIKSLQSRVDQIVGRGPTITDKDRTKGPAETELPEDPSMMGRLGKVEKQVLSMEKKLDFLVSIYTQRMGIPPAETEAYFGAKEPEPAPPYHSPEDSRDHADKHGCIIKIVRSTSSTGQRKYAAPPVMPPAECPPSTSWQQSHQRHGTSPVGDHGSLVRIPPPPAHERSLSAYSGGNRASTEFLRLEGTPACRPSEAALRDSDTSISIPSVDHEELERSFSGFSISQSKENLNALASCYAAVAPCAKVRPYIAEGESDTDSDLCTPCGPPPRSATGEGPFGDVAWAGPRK
KCNQ2 pot baseline – further read-out of KCNQ2 pot, marked with its call; B-score; compound at 10 µM; measured here: initial fluorescence intensity artifact check;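 brightness before thallium and not channel activity; 0 = typical well and far values either way flag optical interference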
Numbers without * were called inactive. A portion of the library; the hit share may differ from the screen's.

item	molecule	KCNQ2 pot	KCNQ2 pot baseline
1	Cn1c(=NC(=O)C2CCN(S(=O)(=O)c3cccs3)CC2)sc2ccccc21	1.1	-0.17
2	O=C1COc2ccc(C(=O)COC(=O)COc3ccccc3[N+](=O)[O-])cc2N1	1.2	-0.38
3	CC1(C)CC(=O)C(C=NCCN2CCNC2=O)=C(O)C1	1.6	-1.4
4	C=CCn1c(N)cc(=O)nc1SCC(=O)Nc1ccccc1C(N)=O	0.63	0.09
5	CC(C)(C)NC(=O)/C=N/O	0.56	0.69
6	Cc1cc(C)c(OCC(=O)Nc2nc3ccccc3[nH]2)c(C)c1	0.02	0.02
7	O=C(O)C1=C[C@H](c2coc3ccccc3c2=O)C[C@H](OCc2ccc(CO)cc2)O1	1.1	0.2
8	Cc1cccc(OCC(=O)Nc2ccc3c4c(cccc24)CC3)c1C	1.9	0.14
9	Cn1c(SCC(=O)Nc2ccc3nc(SCC(=O)NC4CC4)sc3c2)nnc1-c1ccccc1	0.07	-0.02
10	NS(=O)(=O)c1ccc(CCNC(=O)CSCc2ccccc2)cc1	1	-0.12
11	CC(c1ccccc1F)n1cc(C(=O)NCc2ccncc2)nn1 (stereo not given)	0.2	0.35
12	Cc1cc(NC(=O)CCC(=O)N(Cc2ccccc2)C(C(=O)NC2CCCC2)c2ccc(C)o2)no1 (stereo not given)	0.54	-0.4
13	CC1=NN(c2ccc(C(=O)O)c(N)c2)C(=O)C1	0.62	0.45
14	Cc1ccc([N+](=O)[O-])cc1NC(=S)NC(=O)c1cccs1	1.5	-1.7
15	CCOC(=O)C1CCCN(Cc2ccc(O)c(OC)c2)C1 (stereo not given)	0.05	0
16	COc1ccc(S(=O)(=O)NCc2ccco2)c2ccccc12	0.01	1
17	CCN1CCCc2cc(CN(CCN3CCOCC3)C(=S)Nc3cccc(OC)c3)ccc21	0.15	-0.76
18	O=C(NCCc1nc(-c2ccccc2)no1)c1ccccc1	1.7	0.51
19	Cc1cc(N/N=C/c2cccc(Cl)c2)nc(-n2nc(C)cc2C)n1	0.15	1.1
20	Cc1cc(NC(=O)COC(=O)c2cccc(OCc3ccccc3)c2)no1	1	-0.02
21	Cc1cc(N)n2nc(-c3ccccc3)cc2n1	0.97	0.03
22	Cc1ccc(-n2nc(C)c3c2OC(N)=C(C#N)C3c2ccc(F)cc2)cc1 (stereo not given)	0.64	-0.05
23	COC(=O)Nc1ccc(S(=O)(=O)NCCCCCC(=O)O)cc1	0.29	1.7
24	Cc1n[nH]c(C)c1C(=O)CC1(O)C(=O)N(Cc2ccccc2)c2ccc(Br)cc21 (stereo not given)	0.67	-1.1
25	COc1ccccc1C(=O)N1N=C(c2ccc(NS(C)(=O)=O)cc2)CC1c1cccs1 (stereo not given)	1.4	-0.18
26	O=C(NC(C(=O)c1ccccc1)n1ccc(=O)[nH]c1=O)c1ccccc1 (stereo not given)	0.09	0.01
27	O=C(c1ccco1)N1CCN(S(=O)(=O)c2ccc(Cl)s2)CC1	0.95	-0.43
28	O=C(CSc1ncccn1)NCc1ccccc1	1.4	-1.8
29	COc1cc(C(=O)Nc2cc(C)ccn2)cc(OC)c1OC	0.16	1.1
30	COc1ccc(/C=C2/SC(=O)N(CC(=O)NCCC(C)C)C2=O)cc1OC	0.13	0.86
31	Cc1nn(-c2ccccc2)c2c1C(c1cccnc1)N1C=C(S(=O)(=O)N3CCCCC3)C=CC1=N2 (stereo not given)	0.01	-0.63
32	O=C(COc1ccccc1)Nc1ccc(S(=O)(=O)N2CCCC2)cc1	0.6	0
33	CCCc1nc2oc3c(NCC4CCCO4)ncnc3c2c2c1COC(C)(C)C2 (stereo not given)	0.64	0.76
34	Cc1ccc(S(=O)(=O)CCC(=O)OCC(=O)N2CCN(S(=O)(=O)c3ccc(Cl)cc3)CC2)cc1	0.45	-0.66
35	CC(C)(C)C(=O)Nc1ccc(Oc2ccc3c(c2)C(=O)N(c2ccc(O)cc2)C3=O)cc1	0.24	0.63
36	CCOC(=O)c1c(NC(=O)CN2CCN(C(=O)c3ccco3)CC2)sc(C(N)=O)c1C	1.3	-1.8
37	c1cnc(Oc2ccc3oc4ccccc4c3c2)nc1	0.23	-0.02
38	CCOC(=O)CS(=O)(=O)c1ccc2ccccc2c1	0.16	-0.03
39	Cc1ccc(CNC(=O)C(=O)NCC2OCCN2C(=O)c2cccs2)cc1 (stereo not given)	1.9	-0.61
40	O=C(NC(=S)Nc1ccccc1[N+](=O)[O-])c1ccccc1Cl	0.34	-0.85
41	CCn1c(C)c2c([n+]1CC)CC(C)(C)CC2=O	1.4	-0.55
42	COc1ccccc1-c1cn[nH]c1-c1ccc(O)cc1O	2.5	0.13
43	CCOCCn1ccc2c(OCC(=O)Nc3ccccc3OC)cccc2c1=O	0.07	-0.02
44	Cc1csc2nc(CNS(=O)(=O)c3ccc(-c4ccccc4)cc3)cn12	1.2	-0.17
45	COc1cccc(C(=O)NCc2ccc3c(c2)OCO3)c1	0.67	2.5
46	O=C(/C=C/Nc1ccccc1)c1ccc(Oc2ncccn2)cc1	0.71	0.54
47	O=C(C1CCN(S(=O)(=O)c2ccc3ccccc3c2)CC1)N1CCN(c2ncccn2)CC1	0.69	-3
48	Cc1c(C)n(Cc2ccccc2)c2ccc(C(=O)O)cc12	1.6	-1.9
49	O=c1[nH]c(N2CCN(Cc3ccccc3)CC2)nc2c1CCC2	0.6	-0.45
50	CC(=O)Nc1ccc(C(=O)OCC(=O)c2ccc(S(=O)(=O)N3CCCCC3)cc2)cc1	0.02	-2.7

Further structures
item	molecule	KCNQ2 pot	KCNQ2 pot baseline
51	CNC(=O)c1sccc1S(=O)(=O)Cc1c(Cl)cccc1Cl	1.2	0.66
52	CCC(C)C(=O)Nc1nnc(SCC(=O)Nc2ccccc2F)s1 (stereo not given)	1.3	1.2
53	O=C(Nc1ccc2c(c1)C(=O)OC2)Nc1cccc2ccccc12	0.67	-0.03
54	COCCC(=O)N1CCCC(N2CCN(c3ccc(F)cc3)CC2)C1 (stereo not given)	0.61	1.2
55	Cc1nn(-c2ccccc2)nc1C(=O)Nc1ccc2[nH]ncc2c1	1.6	0.13
56	C=CCn1c(=N)c(C#N)cc2c(=O)n3ccccc3nc21	1.4	-2
57	Oc1ccccc1-c1cncn1Cc1ccccc1	0.32	-2.1
58	CCCN(CC1CC1)C(=O)CSc1nnc(-c2ccco2)n1N	0.67	2.3
59	Cc1c(C(=O)Nc2cccc(N(C)S(C)(=O)=O)c2)cccc1[N+](=O)[O-]	1.7	6.3
60	CCN(c1ccccc1)S(=O)(=O)c1ccc(Cl)c(C(=O)N(CC2CCCO2)C2CCS(=O)(=O)C2)c1 (stereo not given)	0.13	0.01

Some of these compounds in order of SMILES length, descending:
item	molecule	KCNQ2 pot	KCNQ2 pot baseline
60	CCN(c1ccccc1)S(=O)(=O)c1ccc(Cl)c(C(=O)N(CC2CCCO2)C2CCS(=O)(=O)C2)c1 (stereo not given)	0.13	0.01
59	Cc1c(C(=O)Nc2cccc(N(C)S(C)(=O)=O)c2)cccc1[N+](=O)[O-]	1.7	6.3
58	CCCN(CC1CC1)C(=O)CSc1nnc(-c2ccco2)n1N	0.67	2.3

Copied from the list.
For KCNQ2 pot baseline, Cc1nn(-c2ccccc2)nc1C(=O)Nc1ccc2[nH]ncc2c1 is listed with 0.13
For KCNQ2 pot, COCCC(=O)N1CCCC(N2CCN(c3ccc(F)cc3)CC2)C1 (stereo not given) is listed with 0.61

Remaining list, next part:
item	molecule	KCNQ2 pot	KCNQ2 pot baseline
61	COc1ccc(NC(=O)Cc2cccs2)c(OC)c1	0.65	-0.53
62	COc1ccccc1N(C(=O)c1snc(C(N)=O)c1N)C(C(=O)NC1CCCC1)c1ccc(N(C)C)cc1 (stereo not given)	0.01	0.01
63	Cc1ccc(N2C(=O)CC(NCC3CCCO3)C2=O)cc1 (stereo not given)	2.7	0.04
64	NS(=O)(=O)c1ccc(CCNC(=O)c2ccc3nc4ccc(Cl)cc4c(=O)n3c2)cc1	0.01	-0.5
65	CCOc1ccccc1NC(=O)CCc1nnc2ccc(N3CCC4(CC3)OCCO4)nn12	0.94	-3.1
66	O=S(=O)(c1ccc(-c2csc(-c3cccnc3)n2)cc1)N1CCOCC1	2.3	0.1
67	CNC(=O)CSCc1cnn(-c2ccccc2)c1-n1cccc1	0.39	1.3
68	O=C(Nc1cc(C(F)(F)F)ccc1-n1cncn1)C1CC1	0.14	-0.01
69	C=CCN(c1ccccc1)S(=O)(=O)c1cccc(C(=O)Nc2nnc(SCC)s2)c1	0.55	-1.7
70	COc1ccc(CCNC(=O)CSc2nc(C)nc3c2oc2ccccc23)cc1OC	0.48	0.56
71	O=C(NC1CCN(S(=O)(=O)c2cccc([N+](=O)[O-])c2)CC1)C1CCCCC1	0.58	-3
72	CC(=O)C(Sc1ccc2nnc(-c3ccncc3)n2n1)C(C)=O	0.59	-0.4
73	CCOC(=O)C1CCN(C(=O)CC2(CC(=O)O)CCCC2)CC1	0.94	0.32
74	Cc1ccc(OCC(=O)N2CCN(c3ccc([N+](=O)[O-])c(N4CCOCC4)c3)CC2)cc1	0.99	-0.15
75	CCOc1ccc(CC(=O)NNC(=S)NC)cc1	0.22	-0.43
76	CCC(=O)Nc1ccc(Cl)c(NC(=S)NC(=O)COc2ccc(Cl)cc2)c1	0.24	-0.01
77	Cc1oc2ccc(OCC(N)=O)cc2c1C(=O)OC(C)C	0.08	1.3
78	COc1ccc(NC(=O)Cn2cnc3c(cnn3-c3ccc(C)c(C)c3)c2=O)c(OC)c1	2.4	2.1
79	CCOC(=O)C[C@H]1c2ccccc2S(=O)(=O)N1Cc1cc(OC)c(OC)c(OC)c1	0.09	2.3
80	Cc1ccc(NC(=O)NCCSc2ccc(C)cc2)cc1	5.5*	-1.9*
81	COc1ccc(NC(=O)CN(C)C(=O)/C=C/c2ccc(OCc3ccccc3)cc2)cc1	0.64	1.3
82	CCSC1=C(C#N)C(CC(C)C)C2=C(CCCC2=O)N1 (stereo not given)	0.18	-1.8
83	NC(=O)c1cn(-c2ccccc2)nc1-c1cc2ccccc2oc1=O	2.4	-1.8
84	O=C(NCC1COCCO1)c1cc(COc2c(F)cccc2F)on1 (stereo not given)	0.19	2.8
85	COc1cccc(COC(=O)c2ccc3c(c2)NC(=O)C(C)S3)c1OC (stereo not given)	0.83	-0.95
86	O=C(CN1C(=O)NC2(CCc3ccccc32)C1=O)c1ccc2c(c1)OCCO2 (stereo not given)	2.2	-1
87	O=C(Nc1ccc(-c2csc(Nc3ccc(Cl)cc3)n2)cc1)c1cc([N+](=O)[O-])cc(C(F)(F)F)c1	0.46	0.66
88	COc1cccc(NC(=O)N2CCC(NC(=O)c3ccco3)CC2)c1	0.73	0.04
89	O=C(Nc1ccccc1Cl)NC1(C(=O)NCc2cccnc2)CCCCC1	0.47	1.9
90	Cc1cccc(N(C)S(=O)(=O)c2c[nH]c3ccc([N+](=O)[O-])cc23)c1	0.03	1.9
91	CCCNC(=O)CSCc1nc(-c2ccc(SC)cc2)oc1C	0.83	1.2
92	O=C(NC(Cc1c[nH]c2ccccc12)c1nnc2n1CCCCC2)c1cccs1 (stereo not given)	0.8	-1.3
93	COC(=O)C1=C(C)NC(=O)C1(NC(=O)c1cccnc1)C(F)(F)F (stereo not given)	0.38	2.9
94	CC(=O)Nc1cccc(NC(=O)COC(=O)C2CC3CCCC(C2)C3=O)c1 (stereo not given)	0.03	-1.2
95	O=C(Nc1ccc(NC(=O)C23CC4CC(CC(C4)C2)C3)cc1)c1cc(F)c(F)cc1Cl	1.7	-0.92
96	CC1N(C(=O)N2CCOCC2)CCN1S(=O)(=O)c1ccc(Cl)cc1 (stereo not given)	0.02	0.03
97	O=C(CSc1nncn1-c1ccccc1)NCc1cccs1	0.58	-1.2
98	CCOc1cc(CNC(C)(C)C)ccc1OCC(=O)Nc1cccc(C(F)(F)F)c1	0.48	-2.5
99	CC(C)(C)NC(=O)C(Cc1ccccc1)NS(=O)(=O)c1cccc2nsnc12 (stereo not given)	0.01	-1.6
100	O=C(NCCc1ccccc1)C1CCCN(S(=O)(=O)c2cnc[nH]2)C1 (stereo not given)	0.87	-0.92
101	CCCCNC(=O)CCNS(=O)(=O)c1ccc(Br)cc1	1.4	0.01
102	O=C(CSc1nnc(-c2cccnc2)n1CCc1ccccc1)N1CCCCC1	0.06	0.54
103	CC12CCC(C/C1=N/O)C2(C)CBr (stereo not given)	0.92	-0.68
104	CC1CCCN(c2c3c(nc4ccccc24)CCCC3)C1 (stereo not given)	3.5	-0.98
105	C=C1C2C[C@H](O)C(C)(C)[C@@]2(O)[C@H](O)C[C@]23C[C@@](C)(O)[C@H](CC[C@H]12)[C@H]3O (stereo not given in full)	0.28	-0.91
106	CC(C)c1nc2c(c(=O)c3ccccc3n2C)c(=O)n1-c1ccc(F)cc1	1	-2
107	C#CCOCCOCCOCCNc1nc(N2CCN(C(=O)[C@H](C(C)C)n3cc(CCO)nn3)CC2)nc(N2CCN(C(=O)[C@H](C(C)C)n3cc(CCO)nn3)CC2)n1	0.7	0.83
108	CCN1/C(=C2/SC(=S)N(NC(C)=O)C2=O)Sc2ccc(Cl)cc21	0.05	-0.16
109	Cc1ccc2cccc(O)c2[n+]1[O-]	0.03	2.4
110	Cc1ccc(N2CC(C(=O)Nc3ccc(S(=O)(=O)N4CCOCC4)cc3)CC2=O)cc1 (stereo not given)	0.31	-0.71
111	Cc1cc(C(=O)COC(=O)c2ccc[nH]c2=O)c(C)n1-c1ccccc1	1.7	0.14
112	COc1ccc(/C=C/C(=O)c2ccc3c(c2)OCCO3)cc1[N+](=O)[O-]	0.03	1.1

Single records (already shown). Screens in order: KCNQ2 pot | KCNQ2 pot baseline
Profile of Cc1cc(C(=O)COC(=O)c2ccc[nH]c2=O)c(C)n1-c1ccccc1 = 1.7 | 0.14
Profile of CCCCNC(=O)CCNS(=O)(=O)c1ccc(Br)cc1 = 1.4 | 0.01
Profile of Cc1ccc(N2CC(C(=O)Nc3ccc(S(=O)(=O)N4CCOCC4)cc3)CC2=O)cc1 (stereo not given) = 0.31 | -0.71

Screening results deposited in PubChem BioAssay by Johns Hopkins Ion Channel Center.
